Rce1 inh – inhibitors of yeast Ras-converting enzyme | Q03530 | yeast membranes, quenched prenylated peptide cleavage fluorescence | calls only | 290,000 compounds, 0.27% hits | AID 2563;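 active = fall in fluorescence gain of 50% or more versus controls, with final raw signal at or below 3038400; inconclusive = same 50% fall but final raw signal above 3038400; inactive = fall in fluorescence gain under 50%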;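 note: plate controls were neutral control wells for no effect and wells lacking membranes for full effect; tested at 10 µM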
Target sequence (Q03530 whole entry, looked up): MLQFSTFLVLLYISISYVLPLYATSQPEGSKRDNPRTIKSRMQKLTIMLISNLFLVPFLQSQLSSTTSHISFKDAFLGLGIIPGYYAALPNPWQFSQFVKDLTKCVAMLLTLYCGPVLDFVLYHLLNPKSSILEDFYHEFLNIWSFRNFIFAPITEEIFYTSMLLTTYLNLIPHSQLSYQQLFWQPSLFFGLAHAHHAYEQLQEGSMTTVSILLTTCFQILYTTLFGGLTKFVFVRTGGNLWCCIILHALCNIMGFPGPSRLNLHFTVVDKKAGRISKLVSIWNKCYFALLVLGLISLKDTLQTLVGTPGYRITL
Env fusion inh – inhibitors of HIV Env-mediated cell fusion | inhibition, % at 12.3 µM | HeLa-JRFL Env/CEM21 cell fusion, luciferase | 360,000 compounds, 1.1% hits;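 active = mean replicate inhibition score of at least 50 and every replicate individually at or above 50; inconclusive = only one of the two criteria met; inactive = mean below 50 and not all replicates reaching 50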;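 note: 0% = plate neutral controls and 100% = maraviroc near 300 nM; one replicate is shown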
eIF4H inh – inhibitors of RNA binding by human eIF4H | eIF4H fluorescence polarization binding assay | inhibition, % at 35 µM | Q15056 | 290,000 compounds, 0.94% hits;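 active = 50% or more with normal probe brightness, or confirmed in later tests; inconclusive = above 50% with abnormal brightness, or retests that disagree; inactive = below 50% or failed in later tests; about a fifth of its hits are not listed in these tables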;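 note: calls also rest on retests at 20 µM and on dose response follow-up; 0% = protein and probe with vehicle and 100% = probe without protein; strong numbers were not always called active; many hits fall short of the cut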
CSC inhib – blocks cancer stem cells. cancer stem cell-like cells viability, luminescence. inhibition, % at 7.5 µM. 300,000 compounds, 1.1% hits;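 active = mean at 75% or more and at least half the replicates too; inconclusive = mean and replicates disagree; tested in HMLE shEcad cells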;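 note: 0% = median of negative and 100% = median of positive control wells; the first replicate is given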
PABP FP inh – PABP-poly(A) binding inhibition; inhibition, % at 35 µM; 290,000 compounds, 1% hits; AID 2014; PABP-poly(A) RNA binding, fluorescence polarization; P11940;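 active = 50% or more with normal probe brightness, or confirmed in later tests; inconclusive = above 50% with abnormal brightness, or retests that disagree; inactive = below 50% or failed in later tests; about a fifth of its hits are not listed in these tables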;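 note: calls also rest on retests at 20 µM and on dose response follow-up; controls were probe without protein and protein plus probe with vehicle; some compounds called inactive have numbers as strong as hits; many hits fall short of the cut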
MT1-MMP act inh – MT1-MMP (human) activation inhibition; GFP/RFP ratio change, % at 20 µM; AID 651647; HT1080 RFP-PRO-GFP cells, GFP/RFP ratio fluorescence, overnight; percent of plate control window, DMSO zero; 360,000 compounds, 0.061% hits; P50281;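 active = GFP/RFP ratio change of at least 30% with cell ATP level not reduced by more than half and red fluorescence within 50% of control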; note: strong numbers were not always called active
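system = RFP-PRO-GFP reporter HT1080 cells | dosing = 20 µM single dose, 1% DMSO | timing = overnight cell settling, then overnight compound exposure, 37 °C, 5% CO2 | read-out basis = GFP/RFP fluorescence ratio | controls = DMSO and RFP-L50D-GFP cell wells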
Yeast UUG start – alters start codon recognition fidelity in yeast | activity score, % at 18.7 µM | S. cerevisiae UUG-firefly luciferase reporter, luminescence/redox ratio | 350,000 compounds, 0.13% hits;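 active = replicate mean at a twofold rise or more, about +100% in these data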;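 note: firefly luciferase made from a UUG start codon reports start codon fidelity; reporter light over untreated wells divided by growth signal over untreated wells; some hits fall short of that in this replicate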
MT1-MMP act inh RFP – recorded beside MT1-MMP act inh, whose call it bears; RFP signal change, %; measured here: RFP expression control read;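 0 = vehicle wells; hits needed this value within 50% of zero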
An asterisk follows results filed as active; i = inactive; ? = inconclusive; nt = not tested or not shown; & = joins results of further samples.

SMILES	Rce1 inh	Env fusion inh	eIF4H inh	CSC inhib	PABP FP inh	MT1-MMP act inh	MT1-MMP act inh RFP	Yeast UUG start
Cc1ccsc1C(=O)NCc1ccccc1Cl	i	-33.2	-2.4	16.1	-7.3	-0.2	-0.7	4.1
CC(C)(C)OC(=O)N1CCC[C@H]1c1nnc(SCc2ccc(Cl)cc2Cl)o1	i	nt	-5.1	-5.4	0.2	-5.4	-15.1	7.0
CCC(=O)NC(=S)Nc1ccc(NC(=O)COc2ccccc2)cc1	i	8.7	-4.9	-1.1	22.5	-0.9	0.4	6.1
Cc1ccccc1C(=O)Nc1ccc(C(=O)N/N=C/c2ccc(O)cc2)cc1	i	13.7	-2.3	57.2	9.6	-0.4	0.2	-10.6
COc1ccc(Nc2nc(N)c([N+](=O)[O-])c(NCc3ccccc3)n2)cc1	i	3.4	-7.9	4.6	-7.5	-5.6	-5.3	nt
COC(=O)Cn1cc(S(=O)(=O)NCc2ccc(C)cc2)c2cc([N+](=O)[O-])ccc21	i	3.0	-3.5	6.8	-5.6	-1.4	1.5	-14.1
CC(=O)/C(C=Nc1noc(C)c1Br)=C(\C)O	i	-29.7	5.9	-14.3	14.3	2.0	1.7	nt
Cc1cc(C)n(CC(=O)NC2CCCc3c2cnn3-c2ccccc2F)n1 (centres undefined)	i	-12.7	0.9	1.4	13.3	2.5	6.7	8.1
CCOCCCNC(=S)N1CCCC(c2nc3ccc(C)cc3[nH]2)C1 (centres undefined)	i	-5.3	-4.2	-1.9	-1.6	2.9	2.3	nt
C1CCN=C(Nc2nc3c(s2)CCCC3)CC1	i	nt	-5.4	-7.3	-0.9	0.5	1.7	-3.1
COCCC(=O)N1CCOCC1c1cc(C(=O)Nc2ccccc2)no1 (centres undefined)	nt	3.6	nt	nt	nt	-1.2	1.9	-8.5
C=CCOn1c(=O)c(C)[n+]([O-])c2ccccc21	i	nt	5.4	-1.8	5.8	-28.2	1.0	-7.6
Cc1noc(C)c1S(=O)(=O)Nc1cccc(CO)c1	i	1.7	8.3	-0.4	1.9	0.6	2.2	-16.0
CCCN1C(=O)/C(=c2\sc3nc(=O)c(Cc4ccc(C)cc4)nn3c2=O)c2ccccc21	i	-2.8	3.1	-8.3	-5.0	1.0	3.5	nt
Cc1cc(C2(c3ccc(O)c(C)c3)OC(=O)c3ccccc32)ccc1O	i	nt	43.1	10.1	7.8	-1.9	-1.4	nt
Cc1ccc(Nc2nc(-c3ccncc3)cs2)cc1	i	-47.4	7.7	nt	3.4	-1.7	-10.3	nt
COc1ccc(N(C)C(=O)c2cn(C)c(=O)c3cc(OC)c(OC)cc23)cc1	i	3.3	-17.3	0.4	4.3	-0.5	3.9	4.1
O=C(CSc1nnc(CNC(=O)c2ccco2)o1)Nc1ccc(F)cc1	i	0.8	-7.1	-11.1	7.1	3.1	8.0	-4.1
CC(C)c1ccc2c(c1)CCC1C(C)(CN)CCCC21C (centres undefined)	i	7.0	1.6	116.4*	3.7	-7.1	-6.4	5.4
CCCn1c(NC(=O)c2ccccc2Br)nc2ccccc21	i	-8.6	0.3	26.7	-9.7	-7.2	-9.2	2.0
O=C(CCNC(=O)N1CCn2c1nc1ccccc12)NCc1ccccc1Cl	i	7.2	-12.2	-5.8	-8.0	3.6	2.8	-12.3
CC(=NCCCn1ccnc1)c1c(-c2ccccc2)[nH]n(-c2nc3ccccc3s2)c1=O	i	10.4	0.7	-13.5	-6.3	-0.5	-8.6	-30.6
Clc1nc2ccccc2cc1/C=N/Nc1nc2ccccc2[nH]1	i	-338.2	9.9	4.8	5.2	1.8	1.0	nt
CS(=O)(=O)N1CCC(NC(=O)Cc2ccccc2)CC1	nt	-32.6	-8.1	3.3	2.7	-0.7	-0.2	-11.6
Nc1nnc(SCC(=O)NC2CCCc3ccccc32)s1 (centres undefined)	i	-2.8	1.3	3.9	-3.2	-0.7	2.3	nt
CCC1(CC)Cc2ccccc2-c2nc(CN3CCOCC3)[nH]c(=O)c21	i	-332.3	-4.3	-3.3	-10.9	4.8	4.3	-0.9
Cc1cc(C)c(NC(=O)CNC(=O)Cc2ccc(S(=O)(=O)N3CCOCC3)s2)c(C)c1	nt	-9.4	nt	-10.7	nt	-1.1	6.3	-6.9
CCC(C)NC(=O)C1CCC(CNS(=O)(=O)c2ccc3c(c2)CC(C)N3C(C)=O)CC1 (centres undefined)	i	7.5	0.9	-6.8	0.6	1.8	0.7	2.0
Cc1ccc(-c2nc3ccccc3[nH]2)cc1NC(=O)c1sc2ccccc2c1Cl	i	-17.7	-0.1	6.9	-5.4	5.2	-0.7	-17.5
O=C(Nc1cccc2c1C(=O)NC2=O)c1cccc(N2C(=O)CCC2=O)c1	nt	1.8	0.7	7.0	-2.6	0.0	2.5	nt
CCN1CCN(C(=O)CN(CC)S(=O)(=O)c2ccc(F)cc2)CC1	i	3.7	-0.9	2.7	-9.3	-0.6	1.2	-5.0
CCc1ccc2[nH]c(=O)c(CN(CCN(C)C)C(=O)Nc3ccccc3)cc2c1	i	nt	-14.4	2.0	-14.3	0.6	1.1	-4.6
Cc1cccc2cc(C#N)c(SCC(=O)Nc3ccccc3N3CCOCC3)nc12	i	-45.3	8.6	2.0	-4.4	-43.6	-9.8	6.1
COc1cc(NC(=S)N2CCN(C/C=C/c3ccccc3)CC2)cc(OC)c1	i	-5.8	-5.2	-7.4	3.6	0.9	-0.7	nt
CCC(C)NC(=O)c1cc2c(=O)[nH]c3ccc(C)cc3c2s1 (centres undefined)	i	-27.1	-9.3	0.2	3.3	12.3	1.4	-3.3
CN(C)C(=O)c1cnc(Cc2c[nH]c3ccccc23)c(I)c1	nt	3.6	nt	nt	nt	2.0	-5.9	-4.4
COc1cccc(NC(=O)c2sc(NC(=O)c3ccncc3)nc2C)c1	i	12.2	-3.8	0.2	-6.7	4.5	-3.0	nt
Cc1ccc(NC(=O)CSCC#N)cc1Cl	i	-22.0	0.6	4.3	3.9	0.4	3.3	nt
Cc1ccc(C(=O)NNC(=O)c2ccc(S(=O)(=O)N3CCOCC3)cc2)cc1	i	-7.0	1.8	-5.8	9.0	-1.4	-1.0	-14.6
Cc1ccc(NC(=O)COC(=O)c2cccc(C)c2[N+](=O)[O-])cc1S(=O)(=O)N1CCCCC1	nt	nt	nt	-4.6	nt	11.0	-2.6	-18.0
Cc1cccc(CSc2nnc(-c3ccccn3)n2N)c1	i	-24.4	-0.2	-7.9	1.7	5.8	2.3	-18.8
COc1ccc(-n2c3c(c(=O)[nH]c2=O)C(NC(=O)c2ccncc2)(C(F)(F)F)C(=O)N3)cc1 (centres undefined)	i	10.2	-11.0	-16.4	2.9	3.7	2.0	-18.0
CC(CCOC1=NS(=O)(=O)c2ccccc21)NC(=O)C(=O)Nc1ccccc1 (centres undefined)	i	-11.6	3.4	-31.5	-4.2	-0.5	3.6	nt
Cc1cccc2c(SCC(N)=O)nc(-c3ccccc3)nc12	i	-6.0	11.2	-10.8	6.0	-1.0	-1.7	-11.1
C/C(N)=C(/C#N)C(=O)COC(=O)c1cc(C)n(-c2ccc(F)cc2)c1C	i	-44.5	-6.6	38.1	-5.9	3.9&4.7	2.0&0.3	-10.8

Overlap with the part before: 4 compounds; new compounds follow.
SMILES	Rce1 inh	Env fusion inh	eIF4H inh	CSC inhib	PABP FP inh	MT1-MMP act inh	MT1-MMP act inh RFP	Yeast UUG start
COc1ccc(-n2c3c(c(=O)[nH]c2=O)C(NC(=O)c2ccncc2)(C(F)(F)F)C(=O)N3)cc1 (centres undefined)	i	10.2	-11.0	-16.4	2.9	3.7	2.0	-18.0
CC(CCOC1=NS(=O)(=O)c2ccccc21)NC(=O)C(=O)Nc1ccccc1 (centres undefined)	i	-11.6	3.4	-31.5	-4.2	-0.5	3.6	nt
Cc1cccc2c(SCC(N)=O)nc(-c3ccccc3)nc12	i	-6.0	11.2	-10.8	6.0	-1.0	-1.7	-11.1
C/C(N)=C(/C#N)C(=O)COC(=O)c1cc(C)n(-c2ccc(F)cc2)c1C	i	-44.5	-6.6	38.1	-5.9	3.9&4.7	2.0&0.3	-10.8
C=C1CCN(c2ccc(C(=O)NCc3ccc(OC)cc3)cc2[N+](=O)[O-])CC1	i	-18.2	nt	29.3	nt	2.8	-4.7	-14.7
COc1ccc(NS(=O)(=O)c2cccc(C(=O)NCC(c3ccco3)N(C)C)c2)cc1 (centres undefined)	i	-0.9	nt	-12.0	nt	-0.2	0.2	1.9
Cc1noc(C)c1COc1ccc(C(=O)OCC(=O)NC(=O)C2COc3ccccc3O2)cc1 (centres undefined)	i	nt	-2.4	nt	10.3	6.0	8.0	1.3
Cc1ccc(C(OCC(O)CN2CCCCC2CO)c2ccccc2)cc1 (centres undefined)	i	9.9	7.3	3.9	7.5	2.3	3.5	nt
CCCCn1nc(C(=O)N[C@@H](CCSC)c2nc3ccccc3[nH]2)c2ccccc2c1=O	i	nt	7.2	0.0	-11.3	-4.5	-5.1	-28.9
Cc1nnc2n1N=C(c1ccc(F)cc1F)CS2	nt	2.9	nt	nt	nt	-3.8	1.0	-1.4
O=C(/C=C/c1ccccc1)C1=C(O)C(=O)N(CCO)C1c1ccc2c(c1)OCO2 (centres undefined)	i	23.6	-10.2	-14.3	3.9	-1.7	-2.1	-26.7
N/C(=N\OC(=O)C1CCCCC1)c1ccncc1	i	0.3	-4.1	-1.0	-12.6	-4.3	-6.9	nt
COc1cc(OC)cc(C(=O)NCC(=O)N2CCN(S(=O)(=O)c3ccccc3F)CC2)c1	nt	nt	nt	-7.8	nt	-4.4	-0.9	-5.3
CCOC(=O)N/N=C/C=C/c1ccccc1	i	20.2	2.0	nt	-2.8	4.9	4.9	nt
CN=C1SC(C(=O)O)CC(=O)N1C (centres undefined)	i	45.3	-6.7	-9.7	7.1	-0.3	10.1	nt
Cc1ccc(S(=O)(=O)N2CCN(CC(=O)N3CCOCC3)CC2)cc1	i	-11.4	-3.7	24.3	10.5	0.3	4.3	-8.2
CC(NCc1ccc(S(N)(=O)=O)cc1)C(=O)Nc1cc([N+](=O)[O-])ccc1Cl (centres undefined)	i	-22.9	-3.5	-8.5	24.6	-0.6	-2.6	-8.4
c1ccc(CCc2nc3ccccc3[nH]2)cc1	nt	-23.2	-7.8	15.9	3.9	2.8	3.7	-12.9
COc1ccc([C@H]2CC(=O)C=C(c3ccccc3)C2)cc1OC	nt	-5.9	nt	6.3	nt	1.1	-3.2	-13.6
N/C(=N\OC(=O)Cc1ccc(-c2ccccc2)cc1)c1cccnc1	i	?	-5.5	4.4	-4.8	-2.1	-13.6	5.4
O=C(c1ccncc1)c1ccc(Br)cc1	i	-22.8	-0.4	-0.7	0.2	-6.0	-3.0	-13.4
Cc1ccc(O)c(C(=O)c2cnc3c(c2)c(-c2ccc(F)cc2)c(C#N)c(=O)n3C)c1	i	-5.1	-12.1	14.6	-5.5	-4.7	-9.4	nt
COc1ccc2oc(=N)c(C(=O)NCc3ccccc3)cc2c1	i	5.2	-8.6	-7.6	-11.0	-3.4	-0.3	-7.7
O=C1c2ccccc2C(Nc2ccc3c(c2)OCO3)N1Cc1ccco1 (centres undefined)	i	nt	0.5	-2.7	2.7	-2.2	-3.4	-3.8
Cc1cccc(C(=O)O/N=C(\c2ccccc2)c2cccnc2)c1	nt	-6.6	0.6	3.0	-10.7	0.0	2.9	nt
Cn1ncc2c(Nc3cc(Cl)cc(Cl)c3)ncnc21	i	-12.8	6.1	-4.9	-0.5	2.9	-0.1	-10.3

Screening data from PubChem.

This is a random part of the collection, and some 2.9% of all compounds hit somewhere here.
